Screening data from PubChem BioAssay.
BB579 growth dn: yeast BB579 growth reduction in restrictive medium. S. cerevisiae BB579 growth, OD615, 48 h. inhibition, % at 10 µM. hit rate 0.51% among 140,000. AID 804;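 active = inhibition above a set limit, 3 SD over the mean compound inhibition, cut at about 44% in these data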; also: inactives centre near -24
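System: Saccharomyces cerevisiae DeaD strain BB579, replicative lifespan model yeast | Buffer or medium: Restrictive glucose-based CSMM-D medium | Times: 4 h preincubation and 48 h exposure at 30 °C | Detection: OD615 turbidity measurement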
Phagocyt inh: blocks phagocytosis by macrophages; J774A.1 macrophage IgG-bead phagocytosis, imaging; inhibition, % at 5 µM; hit rate 0.07% among 110,000;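 active = inhibition above the mean of the plate negative controls plus 5 SD, cut at about 13% in these data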;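 also: phagocytic index as fraction of beads internalized from green versus red external bead signal; plate controls were DMSO negative control for no effect and cytochalasin-D positive control for full effect; some results beyond the cut were filed as inactive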
Yeast lifespan up: extends the lifespan of yeast; hit rate 0.68% among 130,000; S. cerevisiae growth with nicotinamide, OD615; deaD strain in restrictive glucose medium; inhibition of the nicotinamide effect, % at 10 µM; AID 775;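 active = inhibition above a set limit, placed 3 SD over the median of all compounds, cut at about 26% in these data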;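 also: 0% = nicotinamide-treated wells and 100% = cells grown without nicotinamide; some compounds called inactive have numbers as strong as hits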
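Measured by: optical density (absorbance) at 615 nm; System: modified budding yeast, DeaD strain; Medium: restrictive CSMM-D dextrose medium; Timing: 4 h preincubation then 48 h treatment at 30 °C.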
HCT116 PTEN-null: growth suppressors of cells with PTEN tumor suppressor deletion. HCT116 PTEN-null viability, CellTiter-Glo, 60 h; stronger effect = lower value. viability, % at 10 µM. hit rate 1.2% among 140,000;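 active = viability at or below a set limit, 4 SD under the median of all tested compounds, cut at about 3.7% in these data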;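 also: PTEN knockout HCT116 line with beta catenin targeted HCT116 as companion control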
Measles CPE: protection of cells from measles virus; Measles virus-infected cells, CPE protection, absorbance; protection (pct of control), % at 4 µM; hit rate 1.5% among 140,000; in the data active = protection mostly above about 24%, no sharp cut-off; inactive = mostly below about 26%; also: some compounds called inactive have numbers as strong as hits
Numbers without * were called inactive; nt = not tested or not shown.

# | mol | BB579 growth dn | Phagocyt inh | Yeast lifespan up
1 | C[C@]12CC[C@@H]3c4ccc(O)cc4CC[C@H]3[C@@H]1C[C@@H](O)[C@@H]2O[C@@H]1O[C@H](C(=O)O)[C@@H](O)[C@H](O)[C@H]1O | -4 | nt | 2
2 | Clc1ccc2c(c1)CCc1cccnc1C2=C1CCNCC1 | -5 | -1 | -6
3 | CCCCNC(=O)NS(=O)(=O)c1ccc(C)cc1 | 4 | nt | 3
4 | CCN1/C(=C/c2cc[n+](C)cc2)C=Cc2cc(C)ccc21 | -42 | 1 | 36
5 | CN=C(NC#N)NCCSCc1nc[nH]c1C | -29 | nt | 5
6 | CCCCNc1cc(C(=O)O)cc(S(N)(=O)=O)c1Oc1ccccc1 | -8 | nt | 0
7 | Cc1cccc(CN2CCN(C(c3ccccc3)c3ccc(Cl)cc3)CC2)c1 (stereo unspecified) | 1 | nt | 2
8 | COc1ccc([C@@H]2Sc3ccccc3N(CCN(C)C)C(=O)[C@@H]2OC(C)=O)cc1 | -25 | nt | 3
9 | CN/C(=C/[N+](=O)[O-])NCCSCc1ccc(CN(C)C)o1 | -33 | nt | 13

# | HCT116 PTEN-null | Measles CPE
1 | 103 | 5
2 | 59 | 51
3 | 99 | 13
4 | 7 | 30
5 | 101 | 36
6 | 98 | 8
7 | 78 | 23
8 | 95 | 6
9 | 94 | 39

Three of the compounds above, screen by screen.
5. CN=C(NC#N)NCCSCc1nc[nH]c1C
6. CCCCNc1cc(C(=O)O)cc(S(N)(=O)=O)c1Oc1ccccc1
7. Cc1cccc(CN2CCN(C(c3ccccc3)c3ccc(Cl)cc3)CC2)c1 (stereo unspecified)
Compound | 5 | 6 | 7
BB579 growth dn | -29 | -8 | 1
Phagocyt inh | nt | nt | nt
Yeast lifespan up | 5 | 0 | 2
HCT116 PTEN-null | 101 | 98 | 78
Measles CPE | 36 | 8 | 23

As entered above:
cpd 5 @ HCT116 PTEN-null: 101
cpd 4 @ Yeast lifespan up: 36
cpd 2 @ Measles CPE: 51
cpd 9 @ Yeast lifespan up: 13

Part of the list above, screen by screen:
#1 C[C@]12CC[C@@H]3c4ccc(O)cc4CC[C@H]3[C@@H]1C[C@@H](O)[C@@H]2O[C@@H]1O[C@H](C(=O)O)[C@@H](O)[C@H](O)[C@H]1O
#2 Clc1ccc2c(c1)CCc1cccnc1C2=C1CCNCC1
#3 CCCCNC(=O)NS(=O)(=O)c1ccc(C)cc1

| Compound | 1 | 2 | 3 |
| --- | --- | --- | --- |
| BB579 growth dn | -4 | -5 | 4 |
| Phagocyt inh | nt | -1 | nt |
| Yeast lifespan up | 2 | -6 | 3 |
| HCT116 PTEN-null | 103 | 59 | 99 |
| Measles CPE | 5 | 51 | 13 |

A portion of the library. The share of hits here may be higher or lower than overall.
